HCMV NEC inh – inhibitors of HCMV UL50-UL53 nuclear egress complex interaction; AID 1918969; 190,000 compounds, 0.15% hits; inhibition, % (no concentration beside the values); HTRF UL50-UL53 interaction, normalized percent inhibition;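 active = both replicates at 50% or more, plus weaker picks with an unusually low signal ratio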;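 also: stock transfer was 100 nL into about 20 µL; 0% = negative control wells and 100% = wells with untagged competitor protein; inactives centre near -12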
Sa growth 42C – S. aureus growth inhibition. S. aureus RN4220 growth, OD600, 20 h, 42 °C; stronger effect = lower value. relative growth, % (concentration not given with the values). 170,000 compounds, 0.53% hits. AID 720641;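 active = growth at 42 °C up to 50% and 20 or more points under that at 30 °C, or under 10% at both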;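 also: 300 nL library stock went into each well; scaled to the means of positive and negative controls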
GIV Gai3 FP – inhibitors of GIV GBA-motif binding to rat Galpha-i3; Galpha-i3/FITC-GIV peptide fluorescence polarization, 90 min; stronger effect = lower value; scaled: aluminum fluoride 0%, vehicle 100%; percent of control (FP), % (test concentration not listed); 210,000 compounds, 0.42% hits;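 active = replicate mean at 85% of control or lower, very high polarization wells dropped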;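 also: wells of about 15 µL received 100 nL stock; the first replicate is given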
Target sequence (P08753 whole entry, looked up): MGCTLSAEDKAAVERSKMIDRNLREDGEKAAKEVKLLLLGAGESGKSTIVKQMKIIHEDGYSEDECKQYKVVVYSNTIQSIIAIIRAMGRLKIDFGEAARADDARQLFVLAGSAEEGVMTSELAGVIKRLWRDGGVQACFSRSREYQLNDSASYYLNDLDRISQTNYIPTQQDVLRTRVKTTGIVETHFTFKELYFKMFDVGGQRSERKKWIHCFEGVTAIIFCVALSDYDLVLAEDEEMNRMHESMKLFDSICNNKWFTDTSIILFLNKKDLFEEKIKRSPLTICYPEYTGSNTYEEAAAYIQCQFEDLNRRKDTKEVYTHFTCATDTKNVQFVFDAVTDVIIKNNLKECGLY
Sa growth 42C second temp – second read-out of Sa growth 42C, no call of its own (marks repeat the call); relative growth, %; measured here: growth at 30 °C;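 optical density after 20 h as mean of two plates; 100% = untreated growth and lower means inhibition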
An asterisk follows results filed as active; x = not tested or not shown; & = joins results of further samples.

cpd	Structure	HCMV NEC inh	Sa growth 42C	Sa growth 42C second temp	GIV Gai3 FP
1	Fc1cc(F)c2c(c1)C1C=CCC1C(c1cccnc1)N2 (configuration not stated)	-12&-12	100	78	100&103
2	CC(=O)N[C@@H](C)C(=O)NCc1cccc(C(F)(F)F)c1	-3	97	95	x
3	Clc1ccc(C(c2ccc(Cl)cc2)n2cc[n+](CC(OCc3ccc(Cl)cc3Cl)c3ccc(Cl)cc3Cl)c2)cc1 (configuration not stated)	-9	x	x	99
4	C/C(=N\O)c1cn(C)c2ccccc12	-9	111	87	104
5	CCN1CCN(C(=O)c2ccc(Cl)nc2)CC1	6	91	92	x
6	Cc1ccc(S(=O)(=O)N=P(Oc2ccccc2)(c2ccc(C)o2)C(C)(C)C)cc1 (configuration not stated)	16	106	85	x
7	CC12CN3CN(C1)CC(c1ccccc1)(C3)C2=O	x	79	91	96
8	O=c1[nH]c2ccccc2o1	-14	98	82	x
9	COP(=O)(CC(=O)O)c1ccccc1 (configuration not stated)	-9	91	86	104
10	CN(C)C(=O)Oc1cccc(NC(=O)c2ccccc2C(F)(F)F)c1	-5	101	91	96
11	CCCCC1C(=O)NC(=S)NC1=O	x	89	89	117
12	Cc1ccc2[nH]cc(C(O)CN3CCOCC3)c2c1 (configuration not stated)	-30	x	x	105
13	O=C(Nc1cccnc1)c1cccn(Cc2cccc(Cl)c2)c1=O	12	98	100	108
14	O=C(NCc1cccnc1)NC1CCCCC1	-16	95	89	103
15	OC1COC(NCCc2ccccc2)C(O)C1O (configuration not stated)	0	94	68	x
16	COCc1cc(OC(=O)N(C)C)nc2c1c(-c1cccs1)nn2C	-17	107	91	103
17	COc1ccc(C)cc1NC1=NCCCS1	9	101	99	x
18	CC(=O)N1CC2C(C3CCN2CC3)N(C(C)=O)c2ccccc21 (configuration not stated)	-15	99	88	100
19	Cn1c(=O)n(C)c2cc(CNCCc3ccc(Cl)cc3)ccc21	-16	x	x	98
20	Cc1cccc(-n2c(/C=C/c3c(C)[nH]c4ccccc34)nc3ccccc3c2=O)c1	37	106	102	121
21	NNc1ccn(C2OC(CO)C(O)C2O)c(=O)n1 (configuration not stated)	-8	34	22	x
22	N#Cc1ccc(/C=C/C(=O)O)cc1	-58	97	84	x
23	O=C1NC(=O)C(=C/C=C/c2ccccc2)C(=O)N1	25	105	91	89
24	CC(C)C12CN3CCN(CC(C3)C1=O)C2	1	96	93	x
25	Nc1c(C(=O)Nc2cccc(Br)c2)sc2nc3c(cc12)N1CCC3CC1	-49	104	91	114
26	CC(Cc1ccccc1)N1C(=O)c2ccccc2C1=O (configuration not stated)	15	103	103	106
27	N#CC(C#N)=C(NCc1ccc(Cl)nc1)Nc1ccccc1	-11	97	75	x
28	Nc1c(C(=O)Nc2ccccc2)sc2nc3c(cc12)N1CCC3CC1	-43	x	x	98
29	CCN1CCN(C(=O)c2cc(Cl)nnc2Cl)CC1	-6	87	99	x
30	CCN1CCC(NCCOC)CC1	-17	109	109	101
31	CC(C)(C)c1ccc(O)c(CN2CCN(c3ccccc3)CC2)c1	x	98	100	96
32	CN(C(=O)c1ccc(Cl)cc1)c1ccc(Cl)cc1C(=O)c1ccccc1	-32	110	88	102
33	CN(C)C=NC(=O)CN1CCCC1=O	1	110	83	103
34	CN(C)[C@@H]1C(=O)C(C(N)=O)=C(O)[C@@]2(O)C(=O)C3=C(O)c4c(O)cccc4[C@@](C)(O)[C@H]3C[C@@H]12	-71&-13&17&-5	-0.1*	-0.3*	96
35	Cc1ccc(-n2c(CCC(=O)O)nc3ccccc3c2=O)cc1	6	102	96	x
36	CN(C)CCNC(=O)c1cc2cccnc2n(Cc2ccc(F)cc2)c1=O	-32	x	x	105
37	Cc1ccc(NC2=NC(C)CS2)c(C)c1 (configuration not stated)	-35	139	96	x
38	COc1ccccc1C(=O)CN1CCCCC1C (configuration not stated)	1	99	93	x
39	C=C(C)CN(CC)C1CCC(CC)CC1 (configuration not stated)	-11	104	87	103
40	CCN(CC)c1ccc(CN2CC=C(c3ccc(F)cc3)CC2)cc1	6	93	78	105
41	COc1cccc2c1OC[C@H]1CON(C)[C@@H]21	-22	x	x	104
42	Clc1ccccc1NC1=NCCCS1	5	110	101	x
43	C[C@H](N)CN1CCc2ccc(Br)cc21	-7	x	x	102
44	NCCc1ccc(S(=O)(=O)F)cc1	-4&-19	x	x	104
45	Cc1c(C(=O)O)c2ccccc2n1C	-17	98	75	100
46	c1ccc(C2CCCNC2)cc1 (configuration not stated)	9	86	93	99
47	O=C(Nc1ccccc1)N(Cc1ccc2c(c1)OCO2)C1CCN(Cc2ccccc2)CC1	x	123	105	107
48	CN(C)C(=O)O/N=C(\N)c1ccc(OCc2ccccc2F)cc1	-4	90	84	107
49	CC12CN3CN(C1)CC(C)(C3)C2=O	-7	108	91	106
50	OCCC1CNCCN1Cc1c(F)cccc1Cl (configuration not stated)	-9	90	93	104
51	CCN(CC)P1(=S)c2c(C)nn(CCC#N)c2N=C(c2ccc(F)cc2)N1C (configuration not stated)	-21	94	90	x
52	CC(C#N)N1CCN(c2ccc(F)cc2)CC1 (configuration not stated)	-32	90	75	x
53	O=C1NC(=O)C(=Cc2ccccc2OCCOc2ccc([N+](=O)[O-])cc2)C(=O)N1	-2	x	x	104
54	CCCN1CCC[C@@H]2Cc3[nH]ncc3C[C@H]21	-41&-6&-16&-9&-8	89	85	100&104&104
55	COC(=O)C1=C(N)Oc2ccccc2C12C(=O)N(C)c1c2c(=O)oc2ccccc12 (configuration not stated)	-22	82	92	97
56	COc1ccc(C(=O)Nc2ccc(Cl)cc2C(=O)c2ccccc2)c(OC)c1	-18	97	88	104
57	Cc1cc(C)cc(N2C(=O)CC(=O)NC2=S)c1	x	98	86	104
58	COc1cc(C(c2c(O)c3ccccc3oc2=O)c2c(C)n(C)n(-c3ccccc3)c2=O)ccc1O (configuration not stated)	4	95	86	105
59	C=CCN1C(=O)/C(=C\c2ccc(N(CC)CC)cc2)C(=O)NC1=S	-9	54	28	131
60	COc1ccccc1N1CCN(CC#N)CC1	-7	117	74	101

More results follow.
cpd	Structure	HCMV NEC inh	Sa growth 42C	Sa growth 42C second temp	GIV Gai3 FP
61	Oc1cc(Cl)c(Cl)cc1O	4	49	29	101
62	Cc1ccc(S(=O)(=O)NC(CC(=O)N2CCC3(CC2)OCCO3)c2ccco2)cc1 (configuration not stated)	-7	106	97	107
63	CCOC(=O)Cc1ccc(NC(=O)N2Cc3ccccc3-n3cccc3C2c2ccc(C)cc2)cc1 (configuration not stated)	-15	x	x	105
64	COc1ccc(OCC(=O)N2CCN(Cc3cccc(OC)c3OC)CC2)cc1	8	100	100	100
65	Cc1cc(OCc2cccc(C(F)(F)F)c2)c2c3c(c(=O)oc2c1)CCC3	x	94	102	99
66	Cc1ccccc1-n1nc(C)c2c1NC(=O)CSC2c1ccc(Cl)cc1 (configuration not stated)	-5	92	51	97
67	CCC1CN(C)CCC1(O)c1ccccc1 (configuration not stated)	-18	103	88	101
68	COc1ccccc1-n1c(SC(C)C)nc2ccccc2c1=O	-27	87	73	x
69	CNC(C)Cc1ccccn1 (configuration not stated)	-11	111	94	102
70	COc1ccc(OCC(=O)N2CCN(CCc3ccccn3)CC2)cc1	-14&-2	100	87	95&98
71	CC(O)CNC1CCCC(C)C1 (configuration not stated)	-8	72	97	105
72	Fc1ccc(-c2ccc(CNC3CN4CCC3CC4)o2)cc1 (configuration not stated)	-2	x	x	100
73	CCn1cc(CCCC(=O)N2CCC3(CC2)OCCO3)c2ccccc21	-10	89	92	105
74	CCc1c(O)n(C2CCCCC2)c(=S)[nH]c1=O	-2	107	68	93
75	Cc1nn(-c2ccccc2)c(Cl)c1C1C(C#N)=C(N)Oc2c1c(=O)oc1ccccc21 (configuration not stated)	-24	x	x	105
76	CC(C)(C)NCC(O)c1ccccc1Cl (configuration not stated)	-20&-14	88	85	104&99
77	CCOC(=S)SCc1nc2ccccc2c(=O)n1-c1ccccc1	x	103	99	105
78	CC(C)C1(O)c2ccccc2-c2ncccc21 (configuration not stated)	-4	93	73	100
79	CCCC1=C(C(=O)OCC)C2(C(=O)Nc3ccccc32)C(C(=O)OC(C)(C)C)=C(N)O1 (configuration not stated)	-18	x	x	103
80	C/C=C1\CC(C)C(C)(O)C(=O)OCC2CCN3CCC(OC1=O)C23 (configuration not stated)	-12	89	86	101
81	CNC(=O)O/N=C/c1nn(C(C)=O)cc1Br	16	109	104	111
82	CCC(=O)c1ccc(OC)c(F)c1	-22	x	x	103
83	COC(=O)NP(=O)(NNc1ccccc1)OC (configuration not stated)	13	101	95	x
84	Cn1cc(C2=CCN(CC(=O)NC3CC3)CC2)cn1	-40	x	x	106
85	CC(N)Cc1cccs1 (configuration not stated)	-1	98	83	107
86	C1CCN2C(C3N4CCCCN34)N2C1 (configuration not stated)	0	106	88	x
87	Cc1ccc2c(c1)C(c1ccccc1)NCC(=O)N2 (configuration not stated)	-5	100	100	99
88	CN1C2CCC1CC(NC1CCCCC1)C2 (configuration not stated)	2	81	102	x
89	COc1cc(CN2CCN(c3cccc(Cl)c3)CC2)ccc1O	20	103	106	103
90	COCCOC(=O)C1=C(N)Oc2c(c(=O)oc3ccccc23)C1c1ccncc1 (configuration not stated)	-18	x	x	102
91	O=C1NC(=S)NC(=O)C1=Cc1ccco1	2	85	73	73*
92	CCOP1(=S)Oc2cc(Cl)ccc2C(C(F)(F)F)(C(F)(F)F)O1 (configuration not stated)	x	76	72	96
93	Cc1noc(C2CCCNC2)n1 (configuration not stated)	x	88	76	100
94	Brc1cccc(CN2CCN(Cc3cccc(Br)c3)CC2)c1	x	91	103	103
95	CN(C)C(C#N)c1cn(C)c2ccccc12 (configuration not stated)	-14	120	102	103
96	CCN1CCN(Cc2cc(Br)c(O)c(OC)c2)CC1	-12	96	71	100

Part of the list above in another layout.
1. Fc1cc(F)c2c(c1)C1C=CCC1C(c1cccnc1)N2 (configuration not stated)
2. CC(=O)N[C@@H](C)C(=O)NCc1cccc(C(F)(F)F)c1
3. Clc1ccc(C(c2ccc(Cl)cc2)n2cc[n+](CC(OCc3ccc(Cl)cc3Cl)c3ccc(Cl)cc3Cl)c2)cc1 (configuration not stated)
4. C/C(=N\O)c1cn(C)c2ccccc12
5. CCN1CCN(C(=O)c2ccc(Cl)nc2)CC1
6. Cc1ccc(S(=O)(=O)N=P(Oc2ccccc2)(c2ccc(C)o2)C(C)(C)C)cc1 (configuration not stated)
7. CC12CN3CN(C1)CC(c1ccccc1)(C3)C2=O
8. O=c1[nH]c2ccccc2o1
9. COP(=O)(CC(=O)O)c1ccccc1 (configuration not stated)
10. CN(C)C(=O)Oc1cccc(NC(=O)c2ccccc2C(F)(F)F)c1
11. CCCCC1C(=O)NC(=S)NC1=O
12. Cc1ccc2[nH]cc(C(O)CN3CCOCC3)c2c1 (configuration not stated)

Compound	1	2	3	4	5	6	7	8	9	10	11	12
HCMV NEC inh	-12&-12	-3	-9	-9	6	16	x	-14	-9	-5	x	-30
Sa growth 42C	100	97	x	111	91	106	79	98	91	101	89	x
Sa growth 42C second temp	78	95	x	87	92	85	91	82	86	91	89	x
GIV Gai3 FP	100&103	x	99	104	x	x	96	x	104	96	117	105

13. O=C(Nc1cccnc1)c1cccn(Cc2cccc(Cl)c2)c1=O
14. O=C(NCc1cccnc1)NC1CCCCC1

Compound	13	14
HCMV NEC inh	12	-16
Sa growth 42C	98	95
Sa growth 42C second temp	100	89
GIV Gai3 FP	108	103

Back to the main list; the two compounds before the break are reprinted first.
cpd	Structure	HCMV NEC inh	Sa growth 42C	Sa growth 42C second temp	GIV Gai3 FP
95	CN(C)C(C#N)c1cn(C)c2ccccc12 (configuration not stated)	-14	120	102	103
96	CCN1CCN(Cc2cc(Br)c(O)c(OC)c2)CC1	-12	96	71	100
97	Cc1ccc(N/N=C/c2c(O)n(-c3ccccc3)c(=O)[nH]c2=O)cc1	-44	89	79	118
98	CC[N+]12CCC(CC1)C(C(O)(c1ccccc1)c1ccccc1)C2 (configuration not stated)	x	105	80	104
99	O=C(Nc1ccc2c(c1)OCCO2)c1cccn(Cc2cccc([N+](=O)[O-])c2)c1=O	x	104	85	98
100	OCC1(CO)COC(c2cccnc2)N1 (configuration not stated)	-28	99	99	103
101	CC(C)CNC1CCC(O)CC1 (configuration not stated)	-12	102	93	x
102	Cc1cc(OCC(=O)c2ccc(F)cc2)c2c3c(c(=O)oc2c1)CCC3	-20	105	89	x
103	CN1CCC(C#N)(c2ccccc2)CC1	9	90	91	102
104	COc1ccc(/C=C2\C(=O)C3CCN2CC3)cc1	10	x	x	107
105	CCN(CC)P1(=S)OC(C)(C)CC1(C)O (configuration not stated)	7	99	108	105
106	CC(NC(=O)Cc1cccc2ccccc12)C(=O)N1CCC(=O)CC1 (configuration not stated)	-31	102	85	x
107	CCC(=O)N1N=C2C3CCN(CC3)[C@@H]2[C@@H]1c1ccc(Cl)cc1	-23	x	x	100
108	CCOC(=O)C1SC2(C(F)(F)F)CC1(O)c1c(C)cc(C)nc1O2 (configuration not stated)	x	74	95	97

Screening results deposited in PubChem BioAssay by ICCB-Longwood Screening Facility, Harvard Medical School.

Some of the compounds tested. The share of hits here may be higher or lower than overall.
